Source: PubChem BioAssay (National Center for Advancing Translational Sciences (NCATS))
MARV entry inh = inhibitors of Marburg virus binding or cell entry; Marburg virus pseudotyped entry inhibition, cell reporter; control for the full effect not named in the record; about a third of the inactives were read at about 46 µM; Potency, µM (top dose mostly 37.8 µM), for the others: top-dose activity change, negative = inhibition, hits mostly inhibitors; 300,000 compounds, 1.8% hits; AID 540276; active = well fitted inhibition curve with a large enough effect; inconclusive = small, poorly fitted or top-dose-only effect, or effect the other way; inactive = flat fitted curve, though single readings scatter; tested in HEK293 cells; about a fifth of its hits are not listed in these tables; further: on the % scale 0 is the no-effect control and ±100 the full control effect; luciferase read-out
Cruzain noTriton = blocks cruzain activity in detergent-free assay | purified cruzain, Z-FR-AMC fluorescence, no detergent | P25779 | AID 1476 | Potency, µM, for the others: max response, negative = inhibition, most hits filed as inhibitors | 200,000 compounds, 2.3% hits; active means well fitted curve in the direction sought with a large enough effect; inconclusive means small, poorly fitted or top-dose-only effect, or another doubt; inactive means no such curve, though single readings can be large; an effect the other way counts as inactive or inconclusive;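 further: plate controls were enzyme without inhibitor for no effect and buffer without enzyme for full effect; nearly all actives have a fitted effect of over 40% in size; top concentration of the series not given in the record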
Target sequence (P25779 123-467 limits assumed): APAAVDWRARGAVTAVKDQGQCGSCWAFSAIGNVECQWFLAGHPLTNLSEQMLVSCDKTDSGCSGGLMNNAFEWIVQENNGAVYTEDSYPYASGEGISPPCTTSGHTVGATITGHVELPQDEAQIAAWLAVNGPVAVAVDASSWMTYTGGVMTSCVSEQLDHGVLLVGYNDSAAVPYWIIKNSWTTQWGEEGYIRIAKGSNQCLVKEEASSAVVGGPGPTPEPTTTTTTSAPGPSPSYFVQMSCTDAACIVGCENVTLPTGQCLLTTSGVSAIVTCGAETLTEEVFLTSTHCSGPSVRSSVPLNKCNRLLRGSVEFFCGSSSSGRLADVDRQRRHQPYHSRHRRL
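Detergent-free condition (0.00005% Triton X-100) in acetate buffer pH 5.5 with DTT. 1.5 nM enzyme and compound were pre-mixed 15 min, then 2 uM Z-FR-AMC substrate added; reaction progress from fluorescence change between first and third reads (60 s).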
SARS PLP yeast = inhibitors of SARS-CoV papain-like protease in yeast; Potency, µM (series often up to 32.9 µM), without a hit: top-dose activity, positive = growth rescue; S. cerevisiae expressing SARS-CoV PLpro, growth rescue; control for the full effect not named in the record; 330,000 compounds, 0.19% hits; further: 0% is about no effect; nearly all actives have a fitted effect of over 55% in size; growth read by luminescence after 48 h
2A StopGo = FMDV 2A StopGo reporter, luciferase signal | human cells with a luciferase reporter of 2A StopGo recoding; control for the full effect not named in the record | Potency, µM (highest dose often 57.9 µM), without a hit: top-dose signal change, negative = less light | 410,000 compounds, 1.2% hits; active = well fitted falling curve with a large enough effect; inconclusive = small, poorly fitted or top-dose-only effect; inactive = no such curve, though single readings can be large or run the other way; tested in HEK293T cells; further: on the % scale 0 is the no-effect control and ±100 the full control effect; nearly all actives have a fitted effect of over 45% in size; luciferase light after 4 h
Cruzain inh Det = cruzain (T. cruzi) inhibition with detergent; P25779; purified cruzain, Z-FR-AMC fluorescence, 0.01% Triton; Potency, µM, for the others: max response, negative = inhibition, most hits filed as inhibitors; 200,000 compounds, 0.43% hits; active means well fitted curve in the direction sought with a large enough effect; inconclusive means small, poorly fitted or top-dose-only effect, or another doubt; inactive means no such curve, though single readings can be large; an effect the other way counts as inactive or inconclusive;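 further: plate controls were neutral wells for no effect and buffer without enzyme for full effect; nearly all actives have a fitted effect of over 40% in size; top concentration of the series not given in the record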
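Detergent-containing arm of a paired screen for aggregation-based inhibition: 0.01% Triton X-100 present. Cruzain at 1.5 nM cleaved 2 uM Z-FR-AMC at pH 5.5 with 5 mM DTT; AMC fluorescence gain over 60 s measured activity.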
NS1 function inh = influenza NS1 inhibition | S. cerevisiae slowed by influenza A NS1, growth recovery by OD600 | Potency, µM (titrated, usually from 46.1 µM), for the others: at the top dose activity, positive = more growth | 270,000 compounds, 0.4% hits | AID 2326; further: actives are rising curves; nearly all actives have a fitted effect of over 50% in size
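A cell-based growth assay was used: compounds that relieve NS1-induced slow growth of budding yeast raise OD600. Assay medium was yeast nitrogen base with ammonium sulphate and -URA supplement, pH 6.0, with 2% galactose.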
RE007 growth inh = less growth of the S. pombe RE007 Vpr strain | 360,000 compounds, 0.21% hits | Potency, µM (highest dose often 92.2 µM), without a hit: top-dose activity change, negative = less growth | S. pombe RE007 Vpr strain, BacTiter-Glo ATP luminescence, 24 h; control for the full effect not named in the record | AID 651644; active = well fitted falling curve with a large enough effect; inconclusive = small, poorly fitted or top-dose-only effect; inactive = no such curve, though single readings can be large or run the other way;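 further: on the % scale 0 is the no-effect control and ±100 the full control effect; nearly all actives have a fitted effect of over 50% in size; the assay follows cell death caused by Vpr and the record does not say whether a fall means rescue or toxicity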
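Fission yeast RE007 carrying one integrated HIV-1 vpr copy, seeded at OD 0.01 in PMG+AL medium with 23 nL pinned compound. Grown 24 h at 30 degrees; viability read by BacTiter-Glo luminescence after 5 min.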
LASV entry inh = Lassa virus entry inhibition; Potency, µM (series often up to 37.9 µM), without a hit: top-dose activity change, negative = inhibition, actives largely listed as inhibitors; 300,000 compounds, 1.2% hits; Lassa virus pseudotype entry inhibition, cell reporter; control for the full effect not named in the record; active means well fitted inhibition curve with a large enough effect; inconclusive means small, poorly fitted or top-dose-only effect, or effect the other way; inactive means flat fitted curve, though single readings scatter; tested in HEK293 cells; further: on the % scale 0 is the no-effect control and ±100 the full control effect; nearly all actives have a fitted effect of over 50% in size; luciferase read-out
The depositor's hits bear a star; ? = inconclusive; . = not tested or not shown; & = joins results of further samples; [ ] = another dose, or the depositor's remark. Unless noted, the call rests on the fitted dose curve; in most records, active means well fitted rising curve with a large enough effect; inconclusive means small, poorly fitted or top-dose-only effect; inactive means no such curve, though single readings can be large or run the other way. Potency means the concentration at half of the fitted maximal effect.

Values in the order: MARV entry inh, Cruzain noTriton, SARS PLP yeast, 2A StopGo, Cruzain inh Det, NS1 function inh, RE007 growth inh, LASV entry inh
CCOc1ccccc1NC(=O)CN(C)S(=O)(=O)c1ccc2[nH]c(=O)oc2c1
    ., ., ?, -16%, ., 23%, -8%, .
NC(=O)c1ccc(NC(=O)COC(=O)/C=C/c2ccc3c(c2)OCO3)cc1
    ., ., 0%, -6%, ., 1%, 5%, .
COc1ccc(/C=c2\sc3nc(-c4ccccc4OC)nn3c2=O)c(OC)c1
    0%, ?, 6%, 3%, -4.5%, 1%, 3%, 2%
Cc1ccc(C)c(NC(=O)CN2C(=O)C(C)(C)c3ccccc32)c1
    ., 7%, ., -23%, -0.1%, ., ., -4%[46.1 µM]
Cc1ccc(C(=O)Nc2cc3c(cc2C)n(C)c(=O)c(=O)n3C)cc1
    ., -15%, ., 0%, -4.0%, ., ., 8%[46.1 µM]
O=[N+]([O-])c1cc2c(cc1CN1CCN(c3ccccc3)CC1)OCO2
    ., ., -2%, 6%, ., 25%, -10%, .
N#C/C(=C/c1ccc(N2CCCCC2)o1)c1cccc(F)c1
    ?, 11%, -29%, -13%, -9.8%, -51%, -21%, ?
Cc1ccc(Cl)cc1NC(=O)CSc1nnc(C)n1-c1ccccc1
    -1%, 11%, -2%, -29%, -3.3%, -1%, 10%, -17%
COc1ccc(/C=C2\SC(=O)N(CCNC(=O)C3CSC4(C)CCC(=O)N34)C2=O)cc1 (stereo not given)
    24%, ., -1%, 40%[activator], ., ., 2%, 20%
CCOC(=O)c1c(-c2ccccc2)csc1NC(=O)CSc1nnnn1C
    ?, ?, -7%, ?, -4.6%, 3%, -17%, ?
CS(=O)Cc1cc(Sc2ccccc2)nc(-c2ccncc2)n1 (stereo not given)
    12%[46.1 µM], ., 3%, -9%, ., ., 13%, -12%
O=C(NCc1ccccc1Cl)C1CCC(CNS(=O)(=O)c2ccc(Cl)cc2)CC1 (stereo not given)
    ., -7%, ., 17%, -3.0%, ., ., -6%[46.1 µM]
CCOC(=O)C(=O)Nc1nnc(CCc2ccccc2)s1
    10%, -2%, 0%, -2%, -2.8%, 3%, 5%, 8%
COc1ccc(-c2nc3ccc(NS(=O)(=O)c4ccc(Cl)cc4)cc3o2)cc1
    2%[46.1 µM], -23%, ., 21%, -5.8%, ., ., -5%[46.1 µM]
O=C(CSc1nnc(-c2ccco2)o1)Nc1cccc([N+](=O)[O-])c1
    30%, ., 5%, -5%, ., 4%, 3%, 9%
CN1CCN(c2ccc(Cl)cc2NC(=O)CN2C(=O)NC(C)(c3ccccc3)C2=O)CC1 (stereo not given)
    ?, ., -5%, 3%, ., ., 7%, 2%
CCC(=O)Nc1nc2ccccc2n1Cc1ccccc1
    ?, 3%, 1%, 0%, -3.9%, -110%, -1%, ?
CC(C)(C)OC(=O)NNC(=O)C12CC3CC(CC(C3)C1)C2
    -2%, ., -1%, -8%, ., ., 13%, 16%
COc1ccc(Cl)cc1NS(=O)(=O)c1cccc(C(=O)NCC(c2ccco2)N(C)C)c1 (stereo not given)
    -2%, ., 5%, 28%, ., -1%, -6%, -2%
CCCCNC(=O)c1cc2n(n1)C(C(F)(F)F)CC(c1ccccc1)N2 (stereo not given)
    -19%, ?, -3%, -2%, -2.1%, 7%, 17%, -10%
Cc1cc(N2C(=O)C(O)=C(C(=O)c3cc4ccccc4o3)C2c2ccc(Br)cc2)no1 (stereo not given)
    ., ., 2%, -21%, ., 8%, -2%, .
COC(=O)c1ccccc1NC(=O)Nc1ccc(Br)cn1
    -17%[14.2 µM], ., -1%, 0%, ., -3%, 3%, 6%
CCOC(=O)C1=C(c2ccccc2)NC(=S)NC1C (stereo not given)
    9%, -3%, -5%, -29%, 1.4%, -2%, 1%, ?
CC1CCC2(CC1)NC(=O)N(CC(=O)N1CCN(S(=O)(=O)c3ccccc3)CC1)C2=O (stereo not given)
    -18%[46.1 µM], ., 2%, -15%, ., -3%, 5%, -6%[46.1 µM]
CCOC(=O)/C(N=Nc1c(Br)cc(Br)cc1Br)=C(\C)O
    19%, -2%, -8%, 0%, -0.7%, 0%, 25%, ?
O=C(CCS(=O)(=O)Cc1ccccc1)N1CCN(c2ccc([N+](=O)[O-])cc2)CC1
    ?, ., 0%, ?, ., ., -2%, -15%[46.1 µM]
O=C(Nc1ccc(Br)cc1)N1CCc2ccccc2C1
    ?, ., -11%, 46%[activator], ., -32%, -18%, -17%[46.1 µM]
COc1cccc(CC(=O)OCC(=O)N2CCN(c3ccc(F)cc3)CC2)c1
    ?, ., 8%, -30%, ., -12%, -21%, 1%
O=C(O)C1C2CCC(C2)C1C(=O)NCc1ccccn1 (stereo not given)
    7%, -15%, -7%, -22%, 8.2%, -1%, -6%, 7%
Cc1occc1-c1nnc(SCC(=O)N(C)c2ccccc2)n1C
    27%, ., 5%, -19%, ., ., -8%, 5%[46.1 µM]
O=c1[nH]cnc2scc(-c3ccsc3)c12
    5%, 2%, 9%, -17%, -4.7%, -15%, 3%, -2%
COc1ccccc1CNC(=O)c1nn(C)c2c1CS(=O)(=O)c1ccccc1-2
    -7%[46.1 µM], ., 1%, -10%, ., 1%, -4%, -24%[46.1 µM]
CC(C)CCOCc1nc2sc3c(c2c(=O)[nH]1)CCC(C)C3 (stereo not given)
    -3%, ?, 3%, ., 1.1%, ?, -3%, 17%
O=C(/C=C/c1ccccc1)N1CCC(c2ccccc2)C1 (stereo not given)
    ?, 3%, -27%, 22%, -2.9%, -19%, 13%, ?
CC1CCCC1/C(=N/O)c1ccccc1 (stereo not given)
    ., ., 2%, -15%, ., 1%, 10%, .
CCCCc1nc2ccccc2c(=O)n1-c1ccc(Cl)cc1[N+](=O)[O-]
    ?, 14%, -3%, -3%, 3.3%, 8%, 5%, 28%
Cc1ccc(OCCSc2nc3ccccc3n2CCC(=O)O)cc1
    ., 0%, -11%, -16%&-2%, -5.3%, 29%, -2%, -1%[46.1 µM]
CCCS(=O)(=O)N1CCCC(C(=O)NCCCN2CCCC2=O)C1 (stereo not given)
    7%, 1%, 2%, 3%, 6.5%, -4%, 5%, ?
CN(C)CCCN(C(=O)c1ccc(S(=O)(=O)N(C)C)cc1)c1nc2cc3c(cc2s1)OCO3
    ?, ., -1%, -4%, ., -1%, -13%, -7%[46.1 µM]
Cc1c(Cl)cccc1NC(=S)N(Cc1cccs1)C1CCCC1
    -6%, ., -1%, -21%, ., -11%, 22%, ?
O=C(CCCc1cccs1)N1CCN(S(=O)(=O)c2ccccc2Br)CC1
    2%&9%, 11%, -6%, -21%, -0.4%, -14%, -10%, ?
Cc1ccc(NC2=NCC(=O)N2C2CCCC2)cc1
    2%[46.1 µM], ., 1%, 8%, ., 3%, -1%, 20%[46.1 µM]
Nc1ccc(NC(=O)c2cccs2)c(Cl)c1
    17%, -6%, -2%, ., 1.4%, -5%, -4%, 19%
CCN1CCN(CCC(=O)Nc2ccc(F)c(F)c2)CC1
    3%, ., -3%, -8%, ., 6%, -2%, 15%
Cc1c(NC(=O)COC(=O)CCC(=O)c2ccc(Cl)cc2)c(=O)n(-c2ccccc2)n1C
    1%[46.1 µM], ., -1%, -11%, ., ., 4%, 9%
O=P1(NC2CCCCC2)OCC2(CO1)COP(=O)(NC1CCCCC1)OC2 (stereo not given)
    -18%[46.1 µM], ., ., -9%, ., ., 13%, -7%[46.1 µM]
COc1cccc(C2c3[nH]c4ccccc4c3CCN2C(=O)c2ccccc2F)c1OC (stereo not given)
    ., ., -2%, -12%, ., -48%, -14%, .

Compounds above containing four or more nitrogen atoms, in the order listed:
Values in the order: MARV entry inh, Cruzain noTriton, SARS PLP yeast, 2A StopGo, Cruzain inh Det, NS1 function inh, RE007 growth inh, LASV entry inh
Cc1ccc(Cl)cc1NC(=O)CSc1nnc(C)n1-c1ccccc1
    -1%, 11%, -2%, -29%, -3.3%, -1%, 10%, -17%
CCOC(=O)c1c(-c2ccccc2)csc1NC(=O)CSc1nnnn1C
    ?, ?, -7%, ?, -4.6%, 3%, -17%, ?
O=C(CSc1nnc(-c2ccco2)o1)Nc1cccc([N+](=O)[O-])c1
    30%, ., 5%, -5%, ., 4%, 3%, 9%
CN1CCN(c2ccc(Cl)cc2NC(=O)CN2C(=O)NC(C)(c3ccccc3)C2=O)CC1 (stereo not given)
    ?, ., -5%, 3%, ., ., 7%, 2%
CCCCNC(=O)c1cc2n(n1)C(C(F)(F)F)CC(c1ccccc1)N2 (stereo not given)
    -19%, ?, -3%, -2%, -2.1%, 7%, 17%, -10%
CC1CCC2(CC1)NC(=O)N(CC(=O)N1CCN(S(=O)(=O)c3ccccc3)CC1)C2=O (stereo not given)
    -18%[46.1 µM], ., 2%, -15%, ., -3%, 5%, -6%[46.1 µM]
Cc1occc1-c1nnc(SCC(=O)N(C)c2ccccc2)n1C
    27%, ., 5%, -19%, ., ., -8%, 5%[46.1 µM]
CN(C)CCCN(C(=O)c1ccc(S(=O)(=O)N(C)C)cc1)c1nc2cc3c(cc2s1)OCO3
    ?, ., -1%, -4%, ., -1%, -13%, -7%[46.1 µM]

Compounds were not picked by outcome; any-hit rate near 4.7%.
